# Rango dissoc inh – inhibitors of RanGTP-induced Rango-importin beta complex dissociation. O95149+P62826. Biochemical FRET Rango-importin beta, RanGTP-induced dissociation. Potency, µM (titrated, usually from 46.1 µM), for the others: at the highest dose activity change, negative = inhibition. 0.071% of 340,000 active. AID 540253; active means falling FRET ratio curve, often poorly fitted, with flat reads before Ran was added; inconclusive means other falling curves, or compound fluorescence or quenching; inactive means flat or rising ratio curve;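 also: potency is read from the fitted curve at half-maximal effect; % of control where 0% means no effect; nearly all actives have a fitted effect of over 45% in size; -100% = wells without RanGTP and RCC1; the record marks most hits as doubtful in a second field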
#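 Quantitative HTS using a FRET biosensor: 0.1 uM Rango, 0.25 uM importin beta, 0.6 uM Ran, 2 mM GTP, 0.2 uM RCC1 final, PBS with DTT, Tween-20 and BSA. Post-read taken 45 min after Ran addition.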
# miR-21 reporter – miR-21 reporter, rising signal; Potency, µM (series often up to 38.3 µM), for inactives: at the highest dose reporter change, positive = more light; 340,000 tested, under 10 active; HeLa miR-21 FLuc reporter, luciferase, 48 h; AID 2288; active = well fitted rising curve with a large enough effect; inconclusive = small, poorly fitted or top-dose-only effect; inactive = no such curve, though single readings can be large or run the other way;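 also: % of control where 0% means no effect; miR-21 action dims this reporter so a rising signal means less miR-21 action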
#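 Using DMEM plus 10% FBS, HeLa miR-21-FLuc cells are incubated with test compounds (final up to about 40uM) for 48 hours; firefly luciferase signal is then imaged following reagent-mediated lysis.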
# GLA inh pH 4.5 – blocks human alpha-galactosidase A at pH 4.5; P06280; purified enzyme, 4-MU-alpha-Gal fluorescence, pH 4.5; activity change, negative = inhibition, % at 105 µM; 230,000 tested, under 10 active; AID 1467; inconclusive = small, poorly fitted or top-dose-only inhibition, or a rising curve; inactive = flat fitted curve, though single readings scatter; no compound was filed as active;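 also: 0% = full activity with enzyme and -100% = basal without enzyme; dose as in the result columns while the protocol names 77 µM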
# Rango-impB inh – prevents formation of the Rango-importin beta complex; Q14974; Rango CFP/YFP FRET sensor + importin beta, 45 min; Potency, µM (highest dose often 92.2 µM), inactives show at the top dose inhibition of complex formation; 0.031% of 340,000 active; AID 540263; active = rising FRET ratio curve, often small or poorly fitted; inconclusive = mostly compound fluorescence or quenching in the first reads; inactive = flat curves in all reads;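 also: potency is read from the fitted curve at half-maximal effect; 0% = DMSO wells and 100% = buffer wells lacking importin beta; nearly all actives have a fitted effect of over 15% in size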
# Target sequence (Q14974 whole entry, looked up): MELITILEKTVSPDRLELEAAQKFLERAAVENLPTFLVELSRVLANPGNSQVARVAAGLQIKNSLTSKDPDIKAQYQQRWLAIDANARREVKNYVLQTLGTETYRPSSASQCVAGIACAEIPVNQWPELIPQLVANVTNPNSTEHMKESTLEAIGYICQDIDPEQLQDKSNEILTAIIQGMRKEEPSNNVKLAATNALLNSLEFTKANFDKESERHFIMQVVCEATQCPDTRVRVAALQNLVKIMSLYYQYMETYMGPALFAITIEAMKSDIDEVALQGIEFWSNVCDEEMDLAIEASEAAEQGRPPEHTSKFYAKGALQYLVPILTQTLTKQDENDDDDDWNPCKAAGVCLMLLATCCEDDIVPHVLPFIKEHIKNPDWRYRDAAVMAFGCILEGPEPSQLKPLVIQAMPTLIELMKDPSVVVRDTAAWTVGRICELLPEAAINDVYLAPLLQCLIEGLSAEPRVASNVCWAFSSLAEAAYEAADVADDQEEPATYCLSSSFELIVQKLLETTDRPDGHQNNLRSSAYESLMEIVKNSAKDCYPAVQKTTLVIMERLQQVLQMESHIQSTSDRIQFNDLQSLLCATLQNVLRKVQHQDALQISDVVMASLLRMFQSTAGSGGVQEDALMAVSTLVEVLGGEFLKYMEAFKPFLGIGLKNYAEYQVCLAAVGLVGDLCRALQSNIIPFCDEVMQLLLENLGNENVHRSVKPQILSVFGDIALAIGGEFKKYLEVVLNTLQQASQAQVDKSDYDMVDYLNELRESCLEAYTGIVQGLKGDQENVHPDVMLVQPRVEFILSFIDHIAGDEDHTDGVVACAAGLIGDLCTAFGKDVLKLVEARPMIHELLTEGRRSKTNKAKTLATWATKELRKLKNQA
#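 FRET biosensor (snurportin 1 IBB flanked by EYFP and cerulean), 50 nM, with compound 5 min, then 0.125 microM importin beta in PBS, 1 mM DTT, 0.02% Tween-20, 0.1% BSA. CFP/YFP ratio read after 45 min at room temperature; pre-read flags interference.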
# Numbers without * were called inactive; ? = inconclusive; / = not tested or not shown; & = joins results of further samples; [ ] = remark or other dose.
SMILES,Rango dissoc inh,miR-21 reporter,GLA inh pH 4.5,Rango-impB inh
Cc1ccc2nc(Cl)c(C3CC(c4ccco4)=NN3C(=O)CCCC(=O)O)cc2c1 (stereo not drawn),-8%,-3%,0,-1.6%
Cc1ccc(-c2cc(C(=O)Nc3ccc(S(=O)(=O)Nc4ncccn4)cc3)c3ccccc3n2)cc1,-10%,-18%,-3,0.8%
COc1cccc(-c2nc(NC(C)(C)C)c3ccccc3n2)c1O,-15%,-7%,-25,-2.0%
Cc1cccc(NC2=C(Cl)C(=O)OC2OC(C)C)c1 (stereo not drawn),12%,0%,-7,3.4%
CC(Nc1ccccc1N1CCCCC1)C(=O)N1CCc2ccccc21 (stereo not drawn),-6%,0%,-19,-4.3%
CCn1cc(C(=O)NC2CC(C)(C)Cc3c2cnn3-c2cccc(F)c2)cn1 (stereo not drawn),16%,-5%,/,-0.8%
CC(C)C(Nc1ccc(S(=O)(=O)N2CCOCC2)cc1[N+](=O)[O-])C(=O)O (stereo not drawn),7%,1%,-4,1.9%
Cc1ccc(-c2csc(NCCn3c(-c4ccncc4)nc4ccccc43)n2)cc1,-9%,18%,/,0.1%
COc1ccc(C(=O)Nc2ccccc2C(=O)N/N=C/c2ccc(O)c(OC)c2)cc1,7%,?,-5,-1.9%
CC(C)OC(=O)C(C)Oc1ccc(C(=O)NCCc2ccccc2)cc1 (stereo not drawn),-11%,-20%,-12,1.4%
CC(NC(=O)COc1ccccc1)C1COc2ccccc2O1 (stereo not drawn),11%,/,/,-3.6%
CCOC(=O)C1CCCN(C(=O)c2cc3cc(OC)c(OC)cc3[nH]2)C1 (stereo not drawn),1%,0%,/,0.2%
C=CCC1NS(=O)(=O)O[C@H](CCCC)[C@@H]1O (stereo partly drawn),0%,-1%,/,11%
CN(C(=O)CSc1ncnc2sccc12)c1c(N)n(Cc2ccccc2)c(=O)[nH]c1=O,-14%,-2%,-2,-3.1%
CC1=NN(c2ccccc2)C(=O)C1C(=O)c1ccccc1 (stereo not drawn),4%,25%,-2,-4.9%
O=C(O)c1ccc(C2SCC(=O)N2Cc2ccccc2)cc1 (stereo not drawn),3%,-1%,-1,0.4%
COc1ccccc1NC(=O)C(=O)/C=C(\O)c1ccccc1,1%,-57%,1,-4.8%
CC1CCc2c(sc(/N=C/c3ccco3)c2C(N)=O)C1 (stereo not drawn),-1%,-47%,2,-4.0%
O=C1C(=O)N2C(=C1C(=O)N1CCCCCC1)c1ccccc1CC21CCCC1,-13%,-7%,-3,0.1%
Brc1ccc(OCCn2ccnc2)cc1,2%,-7%,-4,5.6%
N#Cc1ncccc1CCc1cccc(Cl)c1,-4%,/,/,0.0%
Cc1[nH][nH]c(=O)c1C(c1ccc(-c2cccc(Cl)c2)o1)c1c(C)[nH][nH]c1=O,15%,-2%,-5,-2.4%
COc1cc2c(cc1OC)C1(CCCC1)CNC2c1ccc([N+](=O)[O-])cc1 (stereo not drawn),7%,5%,1,-0.5%
C/C=C/C=C/C(=O)Nc1cccc(C2=NOC3(C2)C[C@H](C(N)=O)N(C(=O)CC(c2ccccc2)c2ccccc2)C3)c1 (stereo partly drawn),/,4%,-2,/
Cc1cc(/C=C(/C#N)C(=O)Nc2ccccc2)c(C)n1-c1cccnc1,-16%,-46%,6,1.5%
CCOc1ccc(NC(=O)c2ccccc2CO)cc1,-15%,-37%,-6,-1.0%
CCOc1ccc(C(=O)NCCc2ccccc2)cc1,-18%,13%,1,-0.4%
CCOC(=O)c1[nH]c(C)c(C(=O)OCC(=O)N(C)C2CCS(=O)(=O)C2)c1C (stereo not drawn),30%,-8%,7,6.8%
CC(OC(=O)CCN1C(=O)C2CC=CCC2C1=O)C(=O)c1ccc(F)cc1 (stereo not drawn),0%,/,/,?
O=C(CCS(=O)(=O)c1ccc(F)cc1)Nc1nc(-c2ccncc2)cs1,17%,20%,/,2.4%
COc1ccc(S(=O)(=O)N(C)C)cc1NC(=O)c1ccc(OCC(=O)N2CCOCC2)c(OC)c1,-17%,/,/,0.3%
O=C(/C=C/c1cccc(Cl)c1)Nn1c(-c2cccs2)nc2ccccc2c1=O,-9%,-4%,4,-1.1%
COc1cccc(-c2nc(CS(=O)(=O)CC(=O)Nc3cc(C)ccc3C)c(C)o2)c1,-9%,-5%,-7,-2.6%
CCCN(CC(=O)Nc1ccc(F)c(F)c1F)C(=O)Cc1ccc(OC)c(S(=O)(=O)N2CCOCC2)c1,-8%,/,/,-0.5%
CC1=NC(=O)C(N=Nc2cccc(C(=O)O)c2)N1c1ccccc1 (stereo not drawn),1%,-31%,-5,-0.3%
Cc1ncsc1CCOC(=O)c1ccc(Cl)cc1,-19%,-19%,-5,-0.9%
CCNc1nc(NCC)n2c(SCC(=O)Nc3ccc(OC)c(OC)c3)nnc2n1,9%,/,/,-1.3%
COc1ccc2c(c1OC)C(=O)N(c1ncn[nH]1)C2,-1%,-3%,8,?
O=C1Nc2cc3c(cc2Sc2ccccc21)OCCO3,-1%,1%,1,0.1%
CCC1(CC)NC(=O)N(CC(=O)OC(C)C(=O)Nc2ccccc2OC)C1=O (stereo not drawn),12%,/,/,-1.8%
O=c1[nH]nc(Cc2ccc(Cl)cc2)c2ccccc12,6%,-7%,-3,-0.3%
O=C(Nc1ccc(Cl)c(Cl)c1)Nn1cnnc1,11%,-1%,/,-2.6%
NC(=O)C1CCN(C(=O)COc2ccc(S(=O)(=O)NCc3ccccc3)cc2Cl)CC1,16%,-3%,5,-1.7%
Cc1c(OC(=O)CNC(=O)OC(C)(C)C)ccc2c3c(c(=O)oc12)CCC3,?,-8%,?,?
Cc1ccccc1-n1c(=O)cc(NCC2CCCO2)[nH]c1=O (stereo not drawn),-12%,-6%,-5,3.9%
CCN(CC)CCCNC(=O)c1cc2nc3c(c(C(F)(F)F)n2n1)CCc1ccccc1-3,?,-2%,3,-0.8%
O=C(NC1CCCCC1)C(c1ccc(F)cc1)N(C(=O)c1csnn1)C1CCCC1 (stereo not drawn),-6%,0%,/,0.9%
O=C(CC1c2ccccc2Oc2ccccc21)N1CCN(c2ccccn2)CC1,9%,-1%,-11,0.6%
CCCCC(=O)OCc1nc(N)nc(Nc2ccccc2C)n1,8%,-25%,-7,0.6%
CC(=O)Nc1ccc(NC(=O)CCSCCc2ccccn2)cc1,-18%,-1%&0%,8[21.1 µM],-1.1%

# Other compounds.
SMILES,Rango dissoc inh,miR-21 reporter,GLA inh pH 4.5,Rango-impB inh
CC(C)(C)SCCNC(=O)CN(c1ccccc1)S(=O)(=O)c1ccc(F)cc1,-17%,1%,11,-5.1%
CC1CCc2c(sc(NC(=O)c3ccc(-c4ccccc4[N+](=O)[O-])o3)c2C#N)C1 (stereo not drawn),1%,-7%,-9,-0.7%
NC(=O)CSc1nc2ccc([N+](=O)[O-])cc2[nH]1,-7%,-1%,-4,4.2%
Cc1ccc(S(=O)(=O)N2CCCCC2)cc1NC(=O)CCc1nc2ccccc2c(=O)[nH]1,?,/,/,?
CCC1=NN2C(=N)/C(=C/c3ccc(OS(=O)(=O)c4ccccc4)cc3)C(=O)N=C2S1,?,-1%,/,?
COc1ccc(C(NC(=O)C2C3C=CC(C3)C2C(=O)O)c2ccccc2)cc1 (stereo not drawn),13%,0%,-4,0.7%
COc1ccc(C(=O)/C=C/c2ccc(OC3CSC3)cc2)cc1OC,-4%,-1%,-8,0.3%
O=C(NCC1CCCO1)c1ccccc1-c1nc(-c2ccc(F)cc2)no1 (stereo not drawn),4%,-6%,-3,-1.1%
CCOC(=O)c1c(COC(=O)c2ccco2)nc2ccccc2[n+]1[O-],11%,-3%,7,-0.7%
CCOC(=O)[C@H]1[C@H]2COc3ccc(Br)cc3[C@@H]2N2C(=O)[C@H](C)NC(=O)[C@@]12C,8%,/,/,-0.2%
Cc1ccc(N2C(=O)C3ON(c4ccccc4)C(CC(C)C)C3C2=O)cc1 (stereo not drawn),1%,-10%,-4,4.3%
Cc1ccc(C(=O)Nc2ccc(Nc3ccccc3)cc2)c(Cl)c1,-8%,-13%,/,2.5%
CCc1noc(C)c1C(=O)Nc1cc(C(F)(F)F)ccc1-n1cncn1,0%,/,/,-0.8%
CC1(C)C(=O)Nc2ccccc2N1C(=O)COC(=O)CNS(=O)(=O)c1ccc(Br)cc1Cl,0%,/,/,-0.8%
NC(=O)C1CCN(C(=O)CNC(=O)c2ccc(Br)o2)CC1,5%,/,/,-1.1%
CN(CC(=O)Nc1ccccc1)CC(=O)Nc1ccc(F)cc1,-14%,-7%,/,1.0%
CN(C)CCNc1c2c(nc3nnnn13)CCCC2,-12%,-5%,-1,2.8%
O=C(CCc1nnc(CCc2ccccc2)o1)NC(c1cccnc1)C(F)(F)F (stereo not drawn),-9%,-5%,0,3.5%
O=C1C=C(Nc2ccccc2O)c2ccccc2C1=O,-4%,21%,-28,?
N#CCSc1nc(-c2ccccc2)nc2ccccc12,-2%,-3%,/,-0.3%

# Three compounds from above, sorted by length of the SMILES, smallest number first.
SMILES,Rango dissoc inh,miR-21 reporter,GLA inh pH 4.5,Rango-impB inh
N#CCSc1nc(-c2ccccc2)nc2ccccc12,-2%,-3%,/,-0.3%
NC(=O)C1CCN(C(=O)CNC(=O)c2ccc(Br)o2)CC1,5%,/,/,-1.1%
Cc1ccc(N2C(=O)C3ON(c4ccccc4)C(CC(C)C)C3C2=O)cc1 (stereo not drawn),1%,-10%,-4,4.3%

# Further compounds follow.
SMILES,Rango dissoc inh,miR-21 reporter,GLA inh pH 4.5,Rango-impB inh
CCn1c(=O)c2ccccc2n(Cc2cccc([N+](=O)[O-])c2)c1=O,13%,-2%,/,0.1%
Cc1cccc(N2CCN(C(=O)CN3C(=O)NC(C)(C4CC4)C3=O)CC2)c1C (stereo not drawn),6%,/,/,?
COc1cccc(CNC(=O)c2ccc(CS(=O)(=O)Cc3ccc(C)cc3)o2)c1,2%,15%,5,-3.6%
CCOC(=O)C(=O)c1csc(NC(=O)CCSc2ccc(C)cc2)n1,-1%,-5%,6,?
Cc1sc(NC(=O)CCS(=O)(=O)c2ccccc2)c(C#N)c1C,32%,/,/,0.0%
CC1CCCN(c2ccc(C(=O)Nc3cccnc3)cc2[N+](=O)[O-])C1 (stereo not drawn),-12%,-31%,-1,-2.1%
O=C(CCS(=O)(=O)c1ccc(Br)cc1)NCCC1=CCCCC1,-22%,-1%,/,-1.9%
O=C(OCC(=O)c1ccc[nH]1)c1ccccc1,0%,-20%,10,-2.4%
O=C(Cn1c(=O)oc2ccccc21)Nc1ccc2c(c1)OCCO2,9%,-5%,3,1.2%
O=c1c2ccccc2c2ccccc2c(=O)n1CC1CCCO1 (stereo not drawn),-11%,2%,3,-0.5%

# Entries of single compounds from above. Screens in order: Rango dissoc inh	miR-21 reporter	GLA inh pH 4.5	Rango-impB inh
# O=C(OCC(=O)c1ccc[nH]1)c1ccccc1 in the list: 0%	-20%	10	-2.4%
# CCn1c(=O)c2ccccc2n(Cc2cccc([N+](=O)[O-])c2)c1=O in the list: 13%	-2%	/	0.1%
# O=c1c2ccccc2c2ccccc2c(=O)n1CC1CCCO1 (stereo not drawn) in the list: -11%	2%	3	-0.5%
# O=C(CCS(=O)(=O)c1ccc(Br)cc1)NCCC1=CCCCC1 in the list: -22%	-1%	/	-1.9%

# Other entries follow.
SMILES,Rango dissoc inh,miR-21 reporter,GLA inh pH 4.5,Rango-impB inh
COCCNC(=S)NN=C1CCC(c2ccccc2)CC1 (stereo not drawn),-3%,6%,-14,-1.8%
O=C(CN1CCOCC1)N1CCc2ccccc2C(c2ccccc2)C1 (stereo not drawn),-10%,3%,9,0.1%
COc1ccc(S(=O)(=O)N(CC(=O)N2CCN(C)CC2)c2ccccc2)cc1OC,9%,-5%,6,1.4%
CNC(=O)c1sc(N2N=C3/C(=C\c4ccccc4)CCCC3C2c2ccccc2)nc1C (stereo not drawn),?,/,/,?
COc1ccc(C(C(=O)NCC2CCCO2)N(C(=O)CNC(=O)c2cccs2)c2ccc(C)cc2)cc1OC (stereo not drawn),1%,-4%,-3,2.8%
O=C(Oc1cccc2c(O)cccc12)c1ccco1,-18%,/,/,-1.4%
O=C(Cc1ccc(NC(=O)C2CCCN(C(=O)C3CCCC3)C2)cc1)Nc1cccc(C(=O)N2CCCCC2)c1 (stereo not drawn),-9%,/,/,0.5%
CCOCCn1c(CN(Cc2ccccc2)Cc2ccccc2)nc2c1c(=O)n(C)c(=O)n2C,1%,9%,-3,1.7%

# High-throughput results (PubChem)

# Not all compounds are listed; count on the stated rates, not on these rows.
